Source: PubChem BioAssay
VDR inh = Inhibitors of the vitamin D receptor (VDR): qHTS; AID 504847, 2011; Potency, µM, for the others: max response, negative = inhibition, actives largely listed as inhibitors; 400,000 tested, 0.93% active; VDR-SRC2-3 peptide fluorescence polarization, 2 h; active = well fitted inhibition curve with a large enough effect; inconclusive = small, poorly fitted or top-dose-only effect, or another doubt; inactive = no such curve, though single readings can be large or run the other way; also: series mostly up to about 120 µM
Target sequence (P11473 whole entry, looked up): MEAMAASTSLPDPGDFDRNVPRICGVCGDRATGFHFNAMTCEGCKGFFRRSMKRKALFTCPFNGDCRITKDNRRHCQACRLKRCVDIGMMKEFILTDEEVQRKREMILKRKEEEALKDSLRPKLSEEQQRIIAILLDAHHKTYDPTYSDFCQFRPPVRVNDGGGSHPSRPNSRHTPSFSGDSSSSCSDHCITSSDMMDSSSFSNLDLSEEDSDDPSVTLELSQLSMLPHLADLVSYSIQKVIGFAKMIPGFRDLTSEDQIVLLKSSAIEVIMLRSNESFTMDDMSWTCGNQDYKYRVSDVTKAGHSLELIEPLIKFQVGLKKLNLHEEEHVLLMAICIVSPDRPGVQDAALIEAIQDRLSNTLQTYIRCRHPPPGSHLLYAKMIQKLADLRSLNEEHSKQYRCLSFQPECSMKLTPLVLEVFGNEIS
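VDR–SRC2-3 interaction, FP format. Cmpds 23 nl via pintool, brief spin, 2 h ambient incubation.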
* hit, by the source's call; ? = inconclusive; & = joins results of further samples. % is scaled to controls: 0 for no effect and ±100 for the full control effect; potency is read from the fitted curve at half-maximal effect.

> COc1ccc(N2C(=O)C3C4C=CC(C4)C3C2=O)c(OC)c1 (stereo not drawn)
  VDR inh: 14%
> COc1ccc(NC(C)=O)cc1NC(=O)CSc1nnc(-c2ccccn2)n1C
  VDR inh: 4%
> O=C(O)Cn1c(=O)c(F)cn(C2CCCO2)c1=O (stereo not drawn)
  VDR inh: 16%
> CCC1(O)CC(C(=O)OC)=NN1C(=O)c1ccccc1 (stereo not drawn)
  VDR inh: -6%
> CC(=O)NCCc1nc(-c2ccc(Cl)cc2)no1
  VDR inh: -3%
> C=CCNC(=O)COCc1cc(-c2ccc3c(c2)OCO3)on1
  VDR inh: 2%
> CSc1ncc(Cl)c(C(=O)Nc2ccc(C)c(C)c2)n1
  VDR inh: 7%
> O=C(Oc1ccc(/C=N/n2cnnc2)cc1)c1cccc([N+](=O)[O-])c1
  VDR inh: -12%
> CCOc1ccc(NC(=O)c2sc3nc4n(c(=O)c3c2C)CCCC4)cc1
  VDR inh: 12%
> O=C(NCc1ccccc1)C(=O)NCC1OCCN1S(=O)(=O)c1ccc(Br)cc1 (stereo not drawn)
  VDR inh: 3%
> COc1ccc(CNC(=O)CN=C2NC(=O)C(c3ccccc3)(c3ccccc3)N2)cc1
  VDR inh: -17%
> CC(=O)OC(C)C(=O)NS(=O)(=O)c1ccc(C)cc1 (stereo not drawn)
  VDR inh: 8%
> COc1cccc(N2CCN(C(=O)c3cnc4c(-c5ccccc5)c(C)nn4c3C)CC2)c1
  VDR inh: -2%
> COc1cccc(CN2CCSCC2)c1OC
  VDR inh: 8%
> COc1cccc(N2CCN(C(=O)NC3CCCCC3)CC2)c1
  VDR inh: 1%

> Nc1nc2ccccc2n1C(=O)c1cccs1
  VDR inh: -2%
> Cc1nc2c(-c3ccccc3)c(C)nn2c(C)c1CCC(=O)NC(C)c1ccccc1 (stereo not drawn)
  VDR inh: -14%
> CCOc1ccc(N(Cc2nnc3n2CCCCC3)C(=O)Nc2cccc(C)c2)cc1
  VDR inh: 16%
> COc1ccccc1C1C(C(N)=O)=C(C)Nc2nc(SCc3ccccc3F)nn21 (stereo not drawn)
  VDR inh: -13%
> O=C(COC(=O)c1cc(-c2cccs2)nc2ccccc12)c1ccccc1
  VDR inh: -12%
> Cc1cc([N+](=O)[O-])ccc1NC(=O)CN1C2CCC1CC(NC(=O)NC13CC4CC(CC(C4)C1)C3)C2 (stereo not drawn)
  VDR inh: -19%
> O=C(CS(=O)(=O)c1cccc2nsnc12)Nc1ccc(F)cc1
  VDR inh: -14%
> CCOc1ccccc1C(=O)NCc1ccc2c(c1)OCO2
  VDR inh: 1%
> COC(=O)c1ccc2ncccc2c1
  VDR inh: -1%
> CCCCCCCCCn1ccc(=N)cc1
  VDR inh: 0%
> Nc1c(-c2nn[nH]n2)cnn1-c1cc(Cl)cc(Cl)c1
  VDR inh: -15%
> CCCn1c(C(C)Nc2nc(-c3ccc(Cl)c([N+](=O)[O-])c3)cs2)nc2ccccc21 (stereo not drawn)
  VDR inh: -18%
> COc1ccc(S(=O)(=O)N(C)C)cc1NC(=O)c1ccc2c(c1)NC(=O)C(C)S2 (stereo not drawn)
  VDR inh: ?
> COc1ccc(C(CNC(=O)COc2ccc(Cl)c(C)c2)N2CCCCC2)cc1 (stereo not drawn)
  VDR inh: 4%
> CCc1ccccc1NC(=O)CNC(=O)CNC(=O)Cc1ccccc1
  VDR inh: -20%

> O=C(COC(=O)c1ccc(S(=O)(=O)N2CCCCCC2)cc1)NCc1ccc(Cl)cc1
  VDR inh: 5%
> COc1ccc(Nc2oc(-c3ccc(COc4ccccc4C)o3)nc2C#N)cc1
  VDR inh: 20%
> CCc1ccc(CNC(=O)C2Cc3cc(S(=O)(=O)N4CCCCCC4)ccc3N2C(C)=O)cc1 (stereo not drawn)
  VDR inh: 3%
> O=C(N/N=C/c1ccc(Br)cc1)c1ccc(F)cc1
  VDR inh: -2%
> Cc1c(N=C2N=C(NC(=O)NC(C)(C)C)c3ccccc32)c(=O)n(-c2ccccc2)n1C
  VDR inh: -2%
> COc1ccc2c(c1)CCC1C2CC[C@@]2(C)C1CC[C@@H]2NCCCCCCN1C(=O)C=CC1=O (stereo partly drawn)
  VDR inh: -2%
> O=C(Nc1ccc(NC(=O)c2cccs2)cc1)c1ccc2c(c1)OCO2
  VDR inh: 7%
> Cc1cc(Cl)ccc1OC(C)C(=O)NN1C(=O)c2ccccc2C1=O (stereo not drawn)
  VDR inh: 1%
> Cc1noc(C)c1COc1ccc(C(=O)NCc2ccccn2)cc1
  VDR inh: -3%
> CN(Cc1ccccc1)C(=O)c1cc2cc(F)ccc2[nH]1
  VDR inh: 16%
> CCC(=O)N1c2ccc(S(=O)(=O)CCC(=O)N3CCN(c4ccc(F)cc4)CC3)cc2CC1C (stereo not drawn)
  VDR inh: -20%
> O=C(Nc1ccc(F)cc1)C1(S(=O)(=O)c2ccc(Cl)cc2)CC1
  VDR inh: 1%
> CCOC(=O)C1=C(COC(=O)Cc2ccccc2)NC(=O)NC1C (stereo not drawn)
  VDR inh: 13%
> COc1ccc(-n2c(SCC#N)nc3c(sc(=S)n3-c3ccccc3)c2=O)c(OC)c1
  VDR inh: 25µM*
> CCc1ccc(-c2csc(NC(=O)C3CCCO3)c2C(=O)OC(C)C)cc1 (stereo not drawn)
  VDR inh: 15%

An excerpt of the results above, as a working copy:
> O=C(COC(=O)c1ccc(S(=O)(=O)N2CCCCCC2)cc1)NCc1ccc(Cl)cc1
  VDR inh: 5%
> COc1ccc(Nc2oc(-c3ccc(COc4ccccc4C)o3)nc2C#N)cc1
  VDR inh: 20%

The listing continues.
> O=C1OC(Sc2ccccc2)(c2ccccc2)c2ccccc21 (stereo not drawn)
  VDR inh: -23%
> CC1CC(C)CN(c2ncc3c(n2)CC(c2ccccc2)CC3=O)C1 (stereo not drawn)
  VDR inh: 18%
> CN(C)S(=O)(=O)c1ccc(NC(=O)Cc2ccc(S(=O)(=O)N3CCOCC3)s2)cc1
  VDR inh: 23%
> COCCNC(=S)Nc1ccc(Cl)c(Cl)c1
  VDR inh: 5%
> COc1cc(C(=O)Nc2nc(C)c(Cc3ccc4c(c3)OCO4)s2)cc(OC)c1OC
  VDR inh: ?
> CC1CN(C(=O)COC(=O)c2ccc(O)cc2)CC(C)O1 (stereo not drawn)
  VDR inh: -4%
> CN=C(Nc1ccccc1OC)SC1CC(=O)N(c2ccc(C(=O)OC)cc2)C1=O (stereo not drawn)
  VDR inh: -19%
> Cc1onc(-c2ccccc2)c1C(=O)Nc1sc2c(c1C#N)CCC2
  VDR inh: -11%
> O=C(C1CC(=O)N(c2ccc(Cl)cc2)C1)N1CCC(c2nc3ccccc3[nH]2)CC1 (stereo not drawn)
  VDR inh: -10%
> Cn1cnc([N+](=O)[O-])c1S(=O)(=O)c1ccc(Cl)cc1
  VDR inh: 50µM*
> Cc1csc(N)n1
  VDR inh: -6%
> COC(=O)Cc1ccc(N(Cc2ccccc2F)S(=O)(=O)c2ccc(Br)cc2)cc1
  VDR inh: 5%
> O=C(c1cccc(F)c1)N1CCC2(CCN(Cc3ccccc3)CC2)CC1
  VDR inh: 4%
> CC(C)=CCCC(C)NC(=O)NC1CCCCC1 (stereo not drawn)
  VDR inh: -8%
> Cc1ccc(NC(=O)CN2C(=O)C(C)(C)c3cc(S(=O)(=O)N4CCCCC4)ccc32)c(Br)c1
  VDR inh: 12%

> CCOc1cccc(C(=O)Nc2ccc3oc(-c4cccnc4)nc3c2)c1
  VDR inh: -8%&0%
> O=C(COc1ccc(Br)cc1)Nc1ccc(NC(=O)c2ccccc2)cc1
  VDR inh: 12%
> CCOc1ccccc1/C=C(/NC(=O)c1ccccc1)C(=O)N(CC)CC
  VDR inh: 14%
> Cc1oc2ccc(OC(=O)c3cccs3)cc2c1C(=O)OC(C)C
  VDR inh: -12%
> COc1ccc([N+](=O)[O-])cc1NC(=O)C(C)OC(=O)C1CCC1 (stereo not drawn)
  VDR inh: 9%
> Cc1ccc(C)c(S(=O)(=O)N2CCN(C(=O)Cc3ccsc3)CC2)c1
  VDR inh: 14%
> COC(=O)CC1[C@@]2(C)C[C@@]34OC5(C)OC6(CC[C@@]7(C)C(c8ccoc8)OC(=O)C(C(C)=O)C7[C@]6(O5)C(O)[C@@]3(O)C2O)[C@]14C (stereo partly drawn)
  VDR inh: -5%
> CCOC(=O)/C(C#N)=C1\CC2CCC1(C)C2(C)C (stereo not drawn)
  VDR inh: 79µM*
> FC(F)(F)c1cccc(CN2CCC(c3cc(-c4cccs4)n[nH]3)CC2)c1
  VDR inh: -3%
> COc1ccc(C2CC(c3cccs3)=NN2C(=O)c2ccco2)cc1OC (stereo not drawn)
  VDR inh: -8%
> COc1ccc(C(C[N+](=O)[O-])c2c(C)cc3ccccn23)cc1 (stereo not drawn)
  VDR inh: 7%
> CC1CCc2sc(C(=O)N3CCC(C(N)=O)CC3)cc2C1 (stereo not drawn)
  VDR inh: 1%
> Cc1cc(NC(=O)COC(=O)C2CSC3(C)CCC(=O)N23)ccc1Br (stereo not drawn)
  VDR inh: -15%
> O=C(Cn1[nH]c(=O)c2ccccc2c1=O)OCC(=O)N(Cc1ccccc1)Cc1ccccc1
  VDR inh: 12%
> O=c1[nH]c(CS(=O)(=O)c2ccccc2)nc2ccccc12
  VDR inh: -1%

> CNc1ccc2nnc(C(F)(F)C(F)(F)C(F)(F)F)n2n1
  VDR inh: -6%
> Cc1ccc(-c2nnc3c4ccccc4c(C)nn23)cc1NC(=O)c1cccc(Br)c1
  VDR inh: -7%
> O=C1c2ccccc2C(=O)N1CCC(=O)N1CCCc2ccccc21
  VDR inh: 20%
> COc1ccc(NC(=O)c2ccco2)cc1NC(=O)c1ccc(C#N)cc1F
  VDR inh: 26%&-12%
> O=C(c1ccc(Cl)s1)N1CCCC(N2CCN(c3ccc(F)cc3)CC2)C1 (stereo not drawn)
  VDR inh: 17%
> C=CC[C@H](CC(=O)OC(C)(C)C)C(=O)OC[C@H]1CCCN1C(=O)[C@@H](CC=C)CC(=O)N(CCO)Cc1ccccc1
  VDR inh: -6%
> COc1cccc(C(=O)NC(=O)Nc2cc(C)on2)c1
  VDR inh: 5%
> CC1CCCCC1NC(=O)COC(=O)c1ccc(S(=O)(=O)NCc2ccco2)cc1 (stereo not drawn)
  VDR inh: -4%
> O=C(C(=O)N1CCN(c2ccccc2F)CC1)c1c[nH]c2ccccc12
  VDR inh: 11%
> CCCCC[n+]1ccn(-c2nc3ccccc3nc2[N-]S(=O)(=O)c2ccccc2)c1
  VDR inh: -26%
> Cc1cccc(NC(=S)N/N=C/c2cccc([N+](=O)[O-])c2)c1
  VDR inh: -10%
> O=C(CN1C(=O)NC2(CCCC2)C1=O)Nc1nc(-c2ccccc2)cs1
  VDR inh: -4%
> Cc1noc(C)c1COC(=O)COc1cccc2c1OC(C)(C)C2
  VDR inh: 27%
> COc1cc(Cl)c(C)cc1NC(=O)c1ccc(NS(=O)(=O)c2ccc(F)c(F)c2)cc1
  VDR inh: 7%
> O=C(Nc1nnc(SCc2ccc(Cl)cc2Cl)s1)C1COc2ccccc2O1 (stereo not drawn)
  VDR inh: -9%

> COc1ccc2cc(C(=O)C3CCCN(C(=O)CSc4nnc(C)o4)C3)ccc2c1 (stereo not drawn)
  VDR inh: 6%
> CCCS(=O)(=O)N1CCC(N2CCN(Cc3ccc(C)cc3)C(=O)C2=O)CC1
  VDR inh: 7%
> Cc1ccc(NC(=O)CSCc2c(C)noc2C)cc1C
  VDR inh: 0%
> COC(=O)c1cc(Cl)nc2ccccc12
  VDR inh: -10%
> O=C(Nc1cc(C(F)(F)F)ccc1N1CCOCC1)C1Cc2ccccc2CN1C(=O)c1ccco1 (stereo not drawn)
  VDR inh: -5%
> OCCC1CN(Cc2cnc(-c3ccccc3)s2)CCN1C1CCCC1 (stereo not drawn)
  VDR inh: -9%
> COc1ccc(C(=O)Nc2ccc(NC(=O)C3CC3)cn2)cc1
  VDR inh: -1%
> COc1ccc(N2CC(C(=O)Nc3nc4ccccc4s3)CC2=O)cc1 (stereo not drawn)
  VDR inh: -11%
> CC1CCCC(NS(=O)(=O)c2cc(Br)cnc2N)C1C (stereo not drawn)
  VDR inh: -4%
> COc1cc(C(C(=O)NC2CCCC2)N(Cc2ccco2)C(=O)c2snc(C(N)=O)c2N)cc(OC)c1OC (stereo not drawn)
  VDR inh: -9%
> COc1ccc(-c2sc3ccc(N4CCOCC4)cc3c2-c2ccc(O)cc2)cc1
  VDR inh: -3%
> Cc1ccc2[nH]c(=O)c3cc(C(=O)NCCCN4CCC(C)CC4)sc3c2c1
  VDR inh: -7%
> CN(C)c1nc(=NCc2cccs2)ss1
  VDR inh: ?
> CCOC(=O)CC(=O)CSc1nc2nc(C)cc(C)n2n1
  VDR inh: -1%
> NC(=O)NCC(c1ccccc1)C1CCCCC1 (stereo not drawn)
  VDR inh: -1%

> CCOc1ccc(NC(=O)C2C(c3ccccc3)C2(Cl)Cl)cc1 (stereo not drawn)
  VDR inh: 9%
> CCCCOc1ccc(-c2cc3c(=O)n(CC(=O)Nc4ccc(Cl)cc4Cl)ccn3n2)cc1
  VDR inh: -13%
> CCCn1c(=O)n(-c2ccccc2)c(=O)c2sc3ccccc3c21
  VDR inh: -14%
> CC(c1nc2ccccc2o1)N1C(=O)c2ccccc2C1=O (stereo not drawn)
  VDR inh: 0%
> COc1ccccc1C(=O)N1[C@@H](C(C)C)COc2cc(Br)ccc2S1(=O)=O
  VDR inh: 1%
> N=c1c(C(=O)NCC2CCCO2)cc2c(=O)n3ccccc3nc2n1CCCO (stereo not drawn)
  VDR inh: 5%
> CCOC(=O)c1cccc(NS(=O)(=O)c2c(C)[nH]c(=O)[nH]c2=O)c1
  VDR inh: 14%
> O=C(NCc1nnc(SCC(=O)N2CCN(c3ccccc3)CC2)o1)c1ccccc1
  VDR inh: 16%

Ordered by molecular weight (lowest first): four of the compounds above
> CCCn1c(=O)n(-c2ccccc2)c(=O)c2sc3ccccc3c21
  VDR inh: -14%
> CCOc1ccc(NC(=O)C2C(c3ccccc3)C2(Cl)Cl)cc1 (stereo not drawn)
  VDR inh: 9%
> CCOC(=O)c1cccc(NS(=O)(=O)c2c(C)[nH]c(=O)[nH]c2=O)c1
  VDR inh: 14%
> N=c1c(C(=O)NCC2CCCO2)cc2c(=O)n3ccccc3nc2n1CCCO (stereo not drawn)
  VDR inh: 5%

These rows are one share of the data; count on the stated rates, not on these rows.
